PINK1 modulator = A Quantitative High throughput Screen to Identify Chemical Modulators of PINK1 Expression; Potency, µM (top dose mostly 76.6 µM), for inactives: top-dose activation (PINK1 increase), most hits filed as activators; actives 0.2% (n = 410,000); PINK1 immunofluorescence, high-content cytometry, 24 h; active = well fitted activation curve with a large enough effect; inconclusive = small, poorly fitted or top-dose-only effect; inactive = flat fitted curve, though single readings scatter; cell line not stated here;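 also: potency is read from the fitted curve at half-maximal effect; % of control where 0% means no effect; nearly all actives have a fitted effect of over 65% in size; a mitochondrial uncoupler was the plate control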
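Stable cell line treated 24 h with compounds at 5 concentrations (CCCP controls), then fixed and immunostained for PINK1 plus nuclear and cell stains; PINK1 immunofluorescence quantified by laser-scanning microplate cytometry.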
CtBP-E1A inh = qHTS Assay for Inhibitors of the CtBP/E1A Interaction; AID 651724, 2012; actives 0.49% (n = 340,000); AlphaScreen GST-E1A/His-CtBP binding, 1536-well; stronger effect = lower value; control for the full effect not named in the record; CtBP / adenovirus E1A interaction (AlphaScreen); activity change, % (test concentration not listed); in the data active means activity change below about -65%; inconclusive means about -30% to -65%; inactive means above about -30%; also: % is scaled to controls: 0 for no effect and ±100 for the full control effect; compound concentration not given in the record
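In 5 uL wells, 23 nL compound meets equimolar GST-E1A and His-CtBP (5X stock 125 nM each) for 2 h, 37 °C. Beads (5X, 50 ug/mL) then 1 h, 37 °C, dark.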
D2 agonist = Beta-Arrestin HTS for Positive Allosteric Modulators of the Human D2 Dopamine Receptor: Agonists | actives 0.084% (n = 360,000) | DiscoveRx PathHunter D2 beta-arrestin, luminescence, 90 min; 100% = 57 uM dopamine signal | D(2) dopamine receptor (Homo sapiens), P14416 | activation, % (no concentration beside the values); in the data active = activation above about 40%; inconclusive = about 15% to 40%; inactive = below about 15%; also: compound concentration not given in the record; the text of the record calls up to 30% inactive
Target sequence (P14416 whole entry, looked up): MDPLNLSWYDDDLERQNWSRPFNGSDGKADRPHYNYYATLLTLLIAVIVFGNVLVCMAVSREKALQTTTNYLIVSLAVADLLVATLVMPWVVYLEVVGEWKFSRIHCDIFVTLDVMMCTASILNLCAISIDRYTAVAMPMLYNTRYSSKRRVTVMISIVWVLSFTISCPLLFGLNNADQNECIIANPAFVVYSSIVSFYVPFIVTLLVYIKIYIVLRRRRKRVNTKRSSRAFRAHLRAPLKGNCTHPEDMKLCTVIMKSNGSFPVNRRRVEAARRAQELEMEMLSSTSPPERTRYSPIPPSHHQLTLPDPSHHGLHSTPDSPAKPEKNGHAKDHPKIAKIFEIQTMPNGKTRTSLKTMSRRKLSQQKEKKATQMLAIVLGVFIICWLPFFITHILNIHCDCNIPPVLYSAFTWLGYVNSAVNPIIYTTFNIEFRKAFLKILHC
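Agonist mode: compounds alone added to overnight-plated D2 PathHunter cells for 90 min at 37 C, with 57 uM final dopamine (EC100) defining full response. Beta-arrestin recruitment detected by chemiluminescent reagent, read after 1 h at ambient temperature.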
Six1-Eya2 inh = qHTS Assay for Inhibitors of the Six1/Eya2 Interaction | AlphaScreen GST-Six1/His-Eya2 binding, biochemical; stronger effect = lower value; control for the full effect not named in the record | actives 0.56% (n = 360,000) | activity change, % (test concentration not listed) | AID 651725, 2012; in the data active = activity change below about -65%; inconclusive = about -30% to -65%; inactive = above about -30%; also: % is scaled to controls: 0 for no effect and ±100 for the full control effect; compound concentration not given in the record
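AlphaScreen with GST-Six1 and His-Eya2 (5X mix: 250 nM and 500 nM), glutathione donor and nickel acceptor beads; buffer 50 mM Tris pH 8.0, 300 mM NaCl, 1 mM TCEP; 1 h at 37 C in the dark.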
D2 PAM = Beta-Arrestin HTS for Positive Allosteric Modulators of the Human D2 Dopamine Receptor: Potentiators. DiscoveRx D2 beta-arrestin cells, luminescence, 90 min; 100% = 57 uM dopamine signal. D(2) dopamine receptor (Homo sapiens), P14416. potentiation, % (concentration not given with the values). actives 0.23% (n = 360,000); active = potentiation of 50% or more; inconclusive = 30% to 50%; inactive = 30% or less;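 also: compound concentration not given in the record; tested on top of an EC20 dose of dopamine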
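PathHunter D2 cells, attached overnight at 37 deg C, received compound in DMSO plus dopamine at EC20 (50 nM final) for 90 min at 37 deg C. Beta-arrestin recruitment was read as luminescence after 1 h with detection reagent at ambient temperature.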
TRPML1 agonist = qHTS for Agonists of the Human Mucolipin Transient Receptor Potential 1 (TRPML1); Mucolipin-1 (Homo sapiens), Q9GZU1; TRPML1-expressing cells, Ca2+ dye fluorescence, FDSS; host cell line not named in the record; reference of the full effect not given here; activation, % (no concentration beside the values); actives 0.12% (n = 410,000); in the data active = activation above about 50%; inconclusive = about 30% to 50%; inactive = below about 30%; also: 0% is about no effect; the text of the record puts the active cut at 80%
Target sequence (Q9GZU1 whole entry, looked up): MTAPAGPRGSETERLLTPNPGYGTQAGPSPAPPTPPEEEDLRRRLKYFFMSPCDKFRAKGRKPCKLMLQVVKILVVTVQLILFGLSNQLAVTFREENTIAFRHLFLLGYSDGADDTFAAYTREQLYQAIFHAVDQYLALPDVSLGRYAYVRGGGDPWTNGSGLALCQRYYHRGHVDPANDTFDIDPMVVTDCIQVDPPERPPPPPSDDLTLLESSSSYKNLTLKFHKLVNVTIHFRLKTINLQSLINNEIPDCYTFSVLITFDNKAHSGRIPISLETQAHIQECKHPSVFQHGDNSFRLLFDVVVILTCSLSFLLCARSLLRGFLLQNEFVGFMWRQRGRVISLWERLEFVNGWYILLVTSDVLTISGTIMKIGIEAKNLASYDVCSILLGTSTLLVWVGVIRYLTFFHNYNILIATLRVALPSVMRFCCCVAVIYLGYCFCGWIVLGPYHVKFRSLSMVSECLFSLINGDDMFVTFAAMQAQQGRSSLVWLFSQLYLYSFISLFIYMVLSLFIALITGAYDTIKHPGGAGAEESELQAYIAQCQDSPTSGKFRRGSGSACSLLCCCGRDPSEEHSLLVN
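In this qHTS format, compounds were pin-transferred onto Ca8-dye-loaded TRPML1-DL cells induced with Tet overnight, and intracellular Ca2+ fluorescence was recorded kinetically for 110 s after a 10 s baseline. A subsequent 4uM final 54-4 (EC80) addition followed by a second 110 s read served as the antagonist phase.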
* marks the source's active call; other numbers are inactive results; [ ] = remark or other dose.

Screening O=C(c1ccc(Cl)c(Cl)c1)N1CCCC1 returned PINK1 modulator -0.8%, CtBP-E1A inh 3, D2 agonist -1.3, Six1-Eya2 inh 2, D2 PAM -7 and TRPML1 agonist -1.2.
`CCC(C)Sc1ccc([C@H]2N[C@@](CC(C)C)(C(=O)OC)[C@H]3C(=O)N(C)C(=O)[C@@H]23)cc1` (some centres not stated) gave PINK1 modulator 12%, CtBP-E1A inh 0, D2 agonist -0.3, Six1-Eya2 inh -1, D2 PAM -10 and TRPML1 agonist 0.0.
`O=C(Nc1ccc(Cl)c(C(F)(F)F)c1)NC1CC2CCCC(C1)N2C1CC1` (configuration not stated) gave PINK1 modulator 3.7%, CtBP-E1A inh 4, D2 agonist -0.8, Six1-Eya2 inh 9, D2 PAM -29 and TRPML1 agonist 3.8.
For O=C(NCc1ccccc1)N(Cc1cc2cc3c(cc2[nH]c1=O)OCO3)CC1CCCO1 (configuration not stated) the results were PINK1 modulator -0.7%, CtBP-E1A inh 3, D2 agonist -3.6, Six1-Eya2 inh 6, D2 PAM -16 and TRPML1 agonist -0.7.
For COc1cc2c(cc1OC)C(c1ccccc1C(F)(F)F)CC(=O)N2 (configuration not stated) the results were PINK1 modulator 1.2%, CtBP-E1A inh -15, D2 agonist -6.0, Six1-Eya2 inh -13, D2 PAM -2 and TRPML1 agonist -0.7.
Screening OC(c1ccccc1)(C1CCCCC1)C(CN1CCOCC1)c1ccccc1 (configuration not stated) returned PINK1 modulator 14%, CtBP-E1A inh -24, D2 agonist -1.5, Six1-Eya2 inh 8, D2 PAM -7 and TRPML1 agonist 4.1.
For Cn1c(=O)c(C(=O)CSc2nnc(Nc3ccccc3)s2)c(N)n(Cc2ccccc2)c1=O the results were PINK1 modulator 13%, CtBP-E1A inh -1, D2 agonist -0.1, Six1-Eya2 inh 6, D2 PAM 6 and TRPML1 agonist -0.4.
Screening COc1cc(/C=C/C(=O)Nc2ccc3nc4n(c(=O)c3c2)CCCC4)cc(OC)c1OC returned PINK1 modulator 18%, CtBP-E1A inh inconclusive, D2 agonist 6.6, Six1-Eya2 inh -85*, D2 PAM -1 and TRPML1 agonist 3.1.
Screening Cn1c(=O)c2ncn(CC(=O)O)c2n(C)c1=O returned PINK1 modulator 0.0%, D2 agonist -3.8, Six1-Eya2 inh 11, D2 PAM 4 and TRPML1 agonist 0.0.
`COc1cccc(C(C)(O)c2nc(-c3cc4ccccc4o3)cs2)c1` (configuration not stated) gave PINK1 modulator 3.3%, CtBP-E1A inh 2, D2 agonist 6.3, Six1-Eya2 inh -2, D2 PAM -11 and TRPML1 agonist 0.2.
`O=S(=O)(c1ccc(Cl)s1)N1CCN(Cc2ccccc2)CC1` gave PINK1 modulator -0.3%, CtBP-E1A inh 3, D2 agonist -3.7, Six1-Eya2 inh 1, D2 PAM -17 and TRPML1 agonist 1.6.
`O=C(CCCN1CCOC(c2ccccc2)C1)c1ccc(F)cc1` (configuration not stated) gave PINK1 modulator 3.0%, CtBP-E1A inh -5, D2 agonist -5.3, Six1-Eya2 inh 5, D2 PAM -4 and TRPML1 agonist 1.6.
For CCOC(=O)C1CCCN(C(=O)C2CCN(Cc3nc(-c4ccc(Cl)cc4)oc3C)CC2)C1 (configuration not stated) the results were PINK1 modulator 0.8%, CtBP-E1A inh 3, D2 agonist -4.2, Six1-Eya2 inh 1, D2 PAM -21 and TRPML1 agonist -0.6.
O=C(CCSCc1ccccc1Cl)NC1CCCCC1 was read as PINK1 modulator 5.4%, CtBP-E1A inh 8, D2 agonist -0.4, Six1-Eya2 inh 14, D2 PAM -3 and TRPML1 agonist 1.4.
For CCN(CC(=O)NCc1ccc(F)cc1)C(=O)/C=C/c1ccc(OC)c(S(=O)(=O)NC(C)C)c1 the results were PINK1 modulator 10%, CtBP-E1A inh 4, D2 agonist -2.4, Six1-Eya2 inh 1, D2 PAM -7 and TRPML1 agonist -0.3.
COc1ccc(-c2coc3c(C(=O)NCCc4ccccc4)cccc23)c(C)c1 was read as PINK1 modulator 1.7%, CtBP-E1A inh 8, D2 agonist -3.7, Six1-Eya2 inh 0, D2 PAM -8 and TRPML1 agonist 1.0.
`Cc1ccc(NC(=O)NC2(C(=O)NCc3ccco3)CCCCC2)cc1` gave PINK1 modulator 0.7%[38.3 µM], CtBP-E1A inh -1, D2 agonist -3.1, Six1-Eya2 inh -2, D2 PAM -3 and TRPML1 agonist -0.3.
`Cc1ccc(NC(=O)C2CCN(C(=O)c3ccccc3C)CC2)cc1` gave PINK1 modulator -1.7%, CtBP-E1A inh -8, D2 agonist -0.4, Six1-Eya2 inh 3, D2 PAM -5 and TRPML1 agonist 1.2.
CCN(CCn1cccn1)C(=O)CC1C(=O)NCCN1Cc1ccc(OC)c(OC)c1 (configuration not stated) was read as PINK1 modulator 0.2%, D2 agonist 0.1, Six1-Eya2 inh 11, D2 PAM 0 and TRPML1 agonist -0.6.
`CCOC(=O)c1[nH]nc2c1C(=O)N(Cc1ccccc1)C2=O` gave PINK1 modulator 2.3%, CtBP-E1A inh 0, D2 agonist -4.3, Six1-Eya2 inh -3, D2 PAM -15 and TRPML1 agonist -0.3.
Screening C=CCNC(=S)N/N=C(\C)c1ccc(-n2ccnc2)cc1 returned PINK1 modulator -0.3%, CtBP-E1A inh -21, D2 agonist 2.7, Six1-Eya2 inh -14, D2 PAM 14 and TRPML1 agonist 1.2.
For COCCNC(=O)C(c1ccc(C)o1)N(C(=O)C(=O)NC1CCCCC1)c1ccc(F)cc1 (configuration not stated) the results were PINK1 modulator -1.7%, CtBP-E1A inh 0, D2 agonist 0.0, Six1-Eya2 inh 3, D2 PAM 1 and TRPML1 agonist 0.3.
`CCOC(=O)c1c(NC(=O)CN2CCN(C(=O)c3ccco3)CC2)sc2c1CCCC2` gave PINK1 modulator -0.7%, CtBP-E1A inh -11, D2 agonist 3.4, Six1-Eya2 inh 1, D2 PAM 7 and TRPML1 agonist 1.2.
For CCN(CC)S(=O)(=O)c1cc(-c2nnc(-c3ccc(Br)cc3)o2)ccc1Cl the results were PINK1 modulator 1.3%, CtBP-E1A inh -7, D2 agonist 2.7, Six1-Eya2 inh 10, D2 PAM 3 and TRPML1 agonist 0.3.

Grouped by structure: those above containing four or more nitrogen atoms
For Cn1c(=O)c(C(=O)CSc2nnc(Nc3ccccc3)s2)c(N)n(Cc2ccccc2)c1=O the results were PINK1 modulator 13%, CtBP-E1A inh -1, D2 agonist -0.1, Six1-Eya2 inh 6, D2 PAM 6 and TRPML1 agonist -0.4.
Screening Cn1c(=O)c2ncn(CC(=O)O)c2n(C)c1=O returned PINK1 modulator 0.0%, D2 agonist -3.8, Six1-Eya2 inh 11, D2 PAM 4 and TRPML1 agonist 0.0.
CCN(CCn1cccn1)C(=O)CC1C(=O)NCCN1Cc1ccc(OC)c(OC)c1 (configuration not stated) was read as PINK1 modulator 0.2%, D2 agonist 0.1, Six1-Eya2 inh 11, D2 PAM 0 and TRPML1 agonist -0.6.
Screening C=CCNC(=S)N/N=C(\C)c1ccc(-n2ccnc2)cc1 returned PINK1 modulator -0.3%, CtBP-E1A inh -21, D2 agonist 2.7, Six1-Eya2 inh -14, D2 PAM 14 and TRPML1 agonist 1.2.

Continuation.
CC1CCCC(NCC(O)COC(c2ccc(F)cc2)c2ccc(F)cc2)C1C (configuration not stated) was read as PINK1 modulator -1.9%, CtBP-E1A inh -1, D2 agonist -4.1, Six1-Eya2 inh 2, D2 PAM -11 and TRPML1 agonist 4.9.
CCOC(=O)C1CSC(CC(=O)Nc2ccc(Cl)cc2)C(=O)N1 (configuration not stated) was read as CtBP-E1A inh -6, D2 agonist -3.1, Six1-Eya2 inh -5, D2 PAM 0 and TRPML1 agonist 0.5.
`CC1=CC(C)(C)[N+](C)=CN1c1ccccc1` gave PINK1 modulator 1.9%, CtBP-E1A inh 4, D2 agonist -4.8, Six1-Eya2 inh 9, D2 PAM -7 and TRPML1 agonist 0.4.
Screening Nc1c(C(=O)Nc2ccc(Cl)c(C(=O)O)c2)sc2nc3c(cc12)CCCC3 returned PINK1 modulator 1.0%, CtBP-E1A inh -78*, D2 agonist -0.5, Six1-Eya2 inh -74*, D2 PAM 25 and TRPML1 agonist -0.4.
Screening COc1cccc(-c2ncc3ccccc3c2COC(=O)N2CCOCC2)c1 returned PINK1 modulator 0.7%, CtBP-E1A inh 0, D2 agonist 2.1, Six1-Eya2 inh 0, D2 PAM 3 and TRPML1 agonist 0.7.
`O=C(Nc1ccc2c(c1)OCO2)[C@@H]1CCCN1S(=O)(=O)c1cccc2cccnc12` gave PINK1 modulator 2.1%, CtBP-E1A inh 1, D2 agonist -2.4, Six1-Eya2 inh 0, D2 PAM -8 and TRPML1 agonist -0.6.
`O=C(O)c1ccc2nc(C(F)(F)F)[nH]c2c1` gave CtBP-E1A inh 3, D2 agonist 0.2, Six1-Eya2 inh 4, D2 PAM 3 and TRPML1 agonist -0.3.
Screening O=C(COC(=O)c1ccccc1SCC(=O)N1CCCC1)Nc1ccccc1 returned PINK1 modulator 1.4%, CtBP-E1A inh -1, D2 agonist -6.7, Six1-Eya2 inh 2, D2 PAM -7 and TRPML1 agonist 0.6.
`CCc1ccc(NC(=S)N(CCN2CCOCC2)Cc2ccccc2F)cc1` gave PINK1 modulator -0.6%, CtBP-E1A inh -1, D2 agonist -5.0, Six1-Eya2 inh 7, D2 PAM -15 and TRPML1 agonist 0.2.
Screening Cc1nn(CC(=O)O)c(C)c1Cl returned CtBP-E1A inh 6, D2 agonist -1.7, Six1-Eya2 inh 0, D2 PAM -18 and TRPML1 agonist 0.1.
Nc1cccc(-n2cccc2)c1 was read as PINK1 modulator -0.3%, D2 agonist 0.3, Six1-Eya2 inh -8, D2 PAM 5 and TRPML1 agonist 2.7.
`Cc1nn(-c2ccccc2)c(/N=C/c2ccccc2O)c1-c1ccccc1` gave PINK1 modulator 2.6%, CtBP-E1A inh -2, D2 agonist -2.8, Six1-Eya2 inh -30, D2 PAM 8 and TRPML1 agonist 1.4.
For O=C(CN1CCN(c2ccccc2F)CC1)NC(=O)NC1CCCCC1 the results were PINK1 modulator -0.4%, CtBP-E1A inh -5, D2 agonist -3.1, Six1-Eya2 inh 7, D2 PAM -8 and TRPML1 agonist 1.4.
For COc1ccc(C(CNC(=O)CN2C(=O)NC3(CC(C)CC(C)(C)C3)C2=O)N2CCOCC2)cc1 (configuration not stated) the results were PINK1 modulator 3.5%[38.3 µM], CtBP-E1A inh 2, D2 agonist -1.4, Six1-Eya2 inh 0, D2 PAM -7 and TRPML1 agonist -0.1.
CN1C2CCC1CC(NC(=O)CSc1ccc(C(C)(C)C)cc1)C2 (configuration not stated) was read as PINK1 modulator -1.0%, D2 agonist -9.7, Six1-Eya2 inh 2, D2 PAM -7 and TRPML1 agonist 0.8.

High-throughput results: PubChem, National Center for Advancing Translational Sciences (NCATS)
